# Screening results: PubChem BioAssay, several laboratories
# UUG fidelity = yeast start codon fidelity modulation. actives 0.13% (n = 350,000). AID 602363. S. cerevisiae UUG-firefly luciferase reporter, luminescence/redox ratio. activity score, % at 18.7 µM;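 active = replicate mean at a twofold rise or more, about +100% in these data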;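 note: firefly luciferase made from a UUG start codon reports start codon fidelity; reporter light over untreated wells divided by growth signal over untreated wells; some hits fall short of that in this replicate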
# CSC inhib = cancer stem cell inhibition; inhibition, % at 7.5 µM; cancer stem cell-like cells viability, luminescence; AID 2717; actives 1.1% (n = 300,000);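 active = mean at 75% or more and at least half the replicates too; tested in HMLE shEcad cells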;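 note: 0% = median of negative and 100% = median of positive control wells; the first replicate is given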
# Rce1 inhib = blocks yeast Ras-converting enzyme; yeast membranes, quenched prenylated peptide cleavage fluorescence; calls only; actives 0.27% (n = 290,000);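 active = fall in fluorescence gain of 50% or more versus controls, with final raw signal at or below 3038400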;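 note: plate controls were neutral control wells for no effect and wells lacking membranes for full effect; tested at 10 µM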
# Target sequence (Q03530 whole entry, looked up): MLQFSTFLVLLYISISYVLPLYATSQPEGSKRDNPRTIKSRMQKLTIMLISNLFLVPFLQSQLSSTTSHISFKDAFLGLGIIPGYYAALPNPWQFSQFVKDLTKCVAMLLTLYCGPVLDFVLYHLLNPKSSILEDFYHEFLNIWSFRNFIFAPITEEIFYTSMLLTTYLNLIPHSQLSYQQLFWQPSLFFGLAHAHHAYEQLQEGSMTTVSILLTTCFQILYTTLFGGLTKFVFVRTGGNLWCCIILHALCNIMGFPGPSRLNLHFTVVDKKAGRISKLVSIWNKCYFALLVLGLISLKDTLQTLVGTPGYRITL
# Env fusion inh = blocks HIV Env-driven cell-cell fusion. HeLa-JRFL Env/CEM21 cell fusion, luciferase. actives 1.1% (n = 360,000). inhibition, % at 12.3 µM. AID 651610;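 active = mean replicate inhibition score of at least 50 and every replicate individually at or above 50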;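 note: 0% = plate neutral controls and 100% = maraviroc near 300 nM; one replicate is shown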
# PABP polyA inh = blocks human PABP binding to poly(A) RNA. P11940. inhibition, % at 35 µM. AID 2014. fluorescence polarization. actives 1% (n = 290,000);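 active = 50% or more with normal probe brightness, or confirmed in later tests; about a fifth of its hits are not listed in these tables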;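 note: calls also rest on retests at 20 µM and on dose response follow-up; controls were probe without protein and protein plus probe with vehicle; some compounds called inactive have numbers as strong as hits; many hits fall short of the cut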
# Target sequence (P11940 whole entry, looked up): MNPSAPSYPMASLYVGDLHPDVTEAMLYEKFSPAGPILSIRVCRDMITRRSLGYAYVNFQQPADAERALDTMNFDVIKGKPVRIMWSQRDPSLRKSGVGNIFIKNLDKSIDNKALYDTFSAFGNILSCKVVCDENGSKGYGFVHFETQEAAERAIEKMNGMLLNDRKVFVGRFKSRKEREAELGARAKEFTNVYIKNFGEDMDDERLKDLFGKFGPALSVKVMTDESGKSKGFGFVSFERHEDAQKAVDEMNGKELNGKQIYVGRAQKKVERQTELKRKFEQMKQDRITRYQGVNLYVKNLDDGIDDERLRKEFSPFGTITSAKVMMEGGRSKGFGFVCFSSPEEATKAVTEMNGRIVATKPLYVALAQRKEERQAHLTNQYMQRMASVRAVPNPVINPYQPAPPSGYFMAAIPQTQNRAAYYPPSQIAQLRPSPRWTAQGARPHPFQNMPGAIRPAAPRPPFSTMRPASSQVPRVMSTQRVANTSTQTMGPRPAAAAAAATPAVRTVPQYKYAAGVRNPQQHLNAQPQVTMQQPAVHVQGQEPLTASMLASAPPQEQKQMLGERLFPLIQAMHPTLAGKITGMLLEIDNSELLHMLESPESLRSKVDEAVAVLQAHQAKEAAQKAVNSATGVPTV
# eIF4H inh = inhibitors of RNA binding by human eIF4H. Q15056. eIF4H fluorescence polarization binding assay. inhibition, % at 35 µM. actives 0.94% (n = 290,000);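 active = 50% or more with normal probe brightness, or confirmed in later tests; about a fifth of its hits are not listed in these tables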;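 note: calls also rest on retests at 20 µM and on dose response follow-up; 0% = protein and probe with vehicle and 100% = probe without protein; strong numbers were not always called active; many hits fall short of the cut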
# MT1-MMP act inh = MT1-MMP (human) activation inhibition; P50281; HT1080 RFP-PRO-GFP cells, GFP/RFP ratio fluorescence, overnight; percent of plate control window, DMSO zero; GFP/RFP ratio change, % at 20 µM; actives 0.061% (n = 360,000);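 active = GFP/RFP ratio change of at least 30% with cell ATP level not reduced by more than half and red fluorescence within 50% of control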; note: strong numbers were not always called active
#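 Assay system: RFP-PRO-GFP reporter HT1080 cells; read-out basis: GFP/RFP fluorescence ratio; benchmarks: DMSO wells and RFP-L50D-GFP cells; doses: 20 µM single dose, 1% DMSO; schedule: overnight cell settling, then overnight compound exposure, 37 °C, 5% CO2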
# eIF4H inh retest = second read-out of eIF4H inh, no call of its own (marks repeat the call); inhibition, %; compound at 20 µM; confirmation average;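 mean of two retest wells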
# PABP polyA inh retest = also measured in PABP polyA inh; calls as there; inhibition, %; compound at 20 µM; confirmation repeats;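 mean of two retest wells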
# MT1-MMP act inh RFP = recorded beside MT1-MMP act inh, whose call it bears; RFP signal change, %; measured here: RFP expression control read;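 0 = vehicle wells; hits needed this value within 50% of zero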
# An asterisk follows results filed as active; i = inactive; . = no result given; ! = not active in a repeat. An excerpt; rates above refer to the full screens.
SMILES,UUG fidelity,CSC inhib,Rce1 inhib,Env fusion inh,PABP polyA inh,eIF4H inh,MT1-MMP act inh,MT1-MMP act inh RFP,others
O=S(=O)(CCN1CCSCC1)c1ccc(Cl)cc1,-6,32,i,-11,4,-6,-3,-2,
O=C(NC1CCCC1)c1n[nH]c2ccccc12,16,-7,i,-30,13,-1,3,4,
O=C(O)CCC(C(=O)O)N1C(=O)C2C3CCC(C3)C2C1=O (centres undefined),-19,.,.,24,.,.,1,-2,
CC(C)(ONC(=O)Nc1ccccc1Cl)C(=O)O,.,-3,i,23,0,5,-1,2,
Cc1cccc(C)c1NC(=O)C(NC=O)c1ccccc1 (centres undefined),-7,-7,i,.,2,3,0,4,
COc1ccc([N+](=O)[O-])cc1NC(=S)NC(NC(C)=O)C(Cl)(Cl)Cl (centres undefined),-9,.,i,7,-4,-1,-5,1,
COc1ccc2[nH]c(=O)c(CN(C(=O)NC3CCCCC3)C3CCCC3)cc2c1,-5,-7,i,-47,5,0,-10,-9,
COc1ccc(NC(=O)c2ccc3ccccc3n2)cc1S(=O)(=O)N1CCCCC1,.,-4,i,10,2,12,-8,-3,
Cc1ccc(NC(=O)C2(C)CCN2C(=O)C2CCCCC2)cc1C (centres undefined),-5,.,.,-3,.,.,0,0,
C#CCOC(=O)CCCNc1ccc([N+](=O)[O-])cc1[N+](=O)[O-],-2,-7,i,-16,1,32,0,1,
Cc1ccc(S(=O)(=O)CC(=O)Nc2nnc(C)s2)cc1,-9,-5,i,5,8,-16,0,2,
Cc1onc(-c2ccccc2)c1C(=O)Nc1ccc(S(=O)(=O)NC2=NCCCCC2)cc1,4,-11,i,-31,-1,-9,2,-7,
CC1=[N+](C)c2ccc3ccccc3c2C1(C)C,.,103*,i,26,2,32,83,71,
CCCC(=O)N1c2ccccc2[C@@H](N(C(C)=O)c2ccccc2)C[C@H]1C,-20,-13,i,-21,-8,-6,-3,4,
O=C1NC2(CCCCC2)N=C1c1ccccc1,-13,-6,i,-36,3,-18,9,2,
CCN(CC)CCCNC(=O)c1ccc2c(Cl)c3c(nc2c1)CCCC3,.,50,i,42,2,-2,0,-1,
COC(=O)c1ccc(Oc2nc(Nc3ccc(F)cc3)nc(N3CCCC3)n2)cc1,0,-8,i,.,1,-2,-8,2,
COc1ccccc1NS(=O)(=O)c1cccc(NC(=O)Nc2cccc(Cl)c2)c1,.,-15,i,45*,-3,-5,-10,-25,
O=c1[nH]c(N2CCOCC2)cc2ccccc12,-50,8,i,-4,.,.,-2,5,
CCN1C[C@@H]2[C@@H]3C(=O)N(Cc4ccccc4)C(=O)[C@@H]3[C@](C)(C1=O)N2C(=O)c1ccc(Br)cc1,9,.,.,-22,.,.,4,1,
Cc1ccc(S(=O)(=O)N2CCCCC2)cc1NC(=O)C1CC1,-7,-12,.,4,.,.,7,2,
CC(=O)N=c1sc2nc3ccccc3nc2n1N(C(C)=O)C(C)=O,8,-9,i,-23,24,-4,-4,3,
COc1ccc(S(=O)(=O)N2CCCCC2)cc1NS(=O)(=O)c1ccccc1F,-1,-7,i,-8,-8,3,.,.,
O=C(COC(=O)c1ccc([N+](=O)[O-])cc1Cl)Nc1cccnc1Cl,-5,-11,i,5,.,.,0,5,
O=C(NN=C1CCN(Cc2ccccc2)CC1)C(O)c1ccccc1 (centres undefined),.,8,i,-8,-6,1,1,5,
# Going on with the list:
SMILES,UUG fidelity,CSC inhib,Rce1 inhib,Env fusion inh,PABP polyA inh,eIF4H inh,MT1-MMP act inh,MT1-MMP act inh RFP,others
O=C(NC1CCCCC1)C(c1ccccc1)N(Cc1ccco1)C(=O)Cn1cnc2ccccc21 (centres undefined),-17,.,i,.,3,0,2,-1,
CCCCNS(=O)(=O)c1cccc(S(=O)(=O)N2CCCC2)c1,-6,-13,i,.,-1,-2,-2,4,
O=[N+]([O-])c1ccc(COc2ccc(CN3CCCCC3)cc2)cc1,-21,.,.,9,.,.,6,-7,
C[C@H](CO)N1C[C@H](C)[C@H](CN(C)S(=O)(=O)c2cccc(F)c2)OCc2ccccc2-c2c(n(C)c3ccccc23)C1=O,-22,.,.,98*!,.,.,-3,-3,
COc1ccccc1-c1nnn(C/C(N)=N/O)n1,.,-8,i,17,7,0,4,8,
Cc1c(C)n(C(=O)CN2CCN(c3ccccn3)CC2)c2ccccc12,2,-5,i,.,-4,13,2,1,
COc1ccc(CN2CC(C(=O)N3CCOCC3)CC2=O)cc1 (centres undefined),-12,-3,i,.,0,88,-3,-1,eIF4H inh retest=11;PABP polyA inh retest=-3
CCOc1ccc(OCC(=O)OCc2csc(CC(=O)Nc3ccccc3C)n2)cc1,.,-13,i,-1,.,.,5,5,
Nc1ccc(Oc2ncccn2)c(Cl)c1,-8,-13,i,-11,6,-2,2,0,
COc1ccc(OC)c(CNc2ncc(-c3ccc(F)cc3)n2C)c1,-7,.,i,11,5,-2,2,1,
CCCNC(=O)c1ccccc1NS(=O)(=O)c1ccc(OC)c(OC)c1,-17,-9,i,-7,1,-8,0,1,
CCc1nc2ccc(C(=O)Nc3ccc4c(c3)OCC(=O)N4)cn2c1N(CC)Cc1cccc(Br)c1,6,.,.,33,.,.,-8,-11,
CCOC(=O)C1CCCN(C(=O)c2sc3nc(-c4ccc(OC)cc4)cn3c2C)C1 (centres undefined),-6,21,i,-35,13,-2,3,2,
Cc1ccccc1CC(=O)N1CCN(S(=O)(=O)c2cccs2)CC1,2,-1,i,1,-7,-21,-5,6,
Oc1c(Br)cc(Br)cc1C=Nc1cccc2ncccc12,-23,7,i,-5,.,.,-1,5,
COc1ccc(-c2csc(N3CCN(Cc4ccc5c(c4)OCO5)CC3)n2)cc1,6,.,i,.,-1,-1,-12,-7,
O=C(c1cccs1)N1CCN(C(=O)C(c2ccccc2)c2ccccc2)CC1,-12,2,i,-44,-1,-9,0,0,
CCC1(C)Cc2c(C#N)c(N)n(-c3ccccc3)c(=S)c2CO1 (centres undefined),-10,-2,i,15,26,28,-2,3,
CN(CC(=O)NCCc1ccc(F)cc1)Cc1ccccc1,-22,8,i,10,1,6,-3,-2,
Cc1ccc(S(=O)(=O)N2CCC(C(=O)NCCCOC(C)C)CC2)cc1,0,0,i,.,-17,-8,1,1,
COC(=O)c1cccc(NC(=O)NC(=O)c2ccccc2Cl)c1,.,7,i,43,-8,-10,1,-1,
CC(C)OC(=O)Cn1cnc2ccc(Br)cc2c1=O,-14,.,i,.,-3,-1,1,3,
CCc1nnc2c(NCCc3ccc(OC)c(OC)c3)nc3ccccc3n12,-9,.,i,11,-4,-9,13,0,
c1ccc(COC2CCCN(Cc3nc(-c4cccs4)no3)C2)nc1 (centres undefined),.,2,i,5,-1,-1,-1,3,
O=C(NC(Cc1ccccc1)C(=O)O)/C(=C/c1ccco1)NC(=O)c1cccc([N+](=O)[O-])c1 (centres undefined),-4,26,i,12,-12,8,-1,8,

# Arranged by length of the SMILES (ascending): 18 of the compounds above.
SMILES,UUG fidelity,CSC inhib,Rce1 inhib,Env fusion inh,PABP polyA inh,eIF4H inh,MT1-MMP act inh,MT1-MMP act inh RFP,others
Nc1ccc(Oc2ncccn2)c(Cl)c1,-8,-13,i,-11,6,-2,2,0,
COc1ccccc1-c1nnn(C/C(N)=N/O)n1,.,-8,i,17,7,0,4,8,
CC(C)OC(=O)Cn1cnc2ccc(Br)cc2c1=O,-14,.,i,.,-3,-1,1,3,
CN(CC(=O)NCCc1ccc(F)cc1)Cc1ccccc1,-22,8,i,10,1,6,-3,-2,
Oc1c(Br)cc(Br)cc1C=Nc1cccc2ncccc12,-23,7,i,-5,.,.,-1,5,
COc1ccc(CN2CC(C(=O)N3CCOCC3)CC2=O)cc1 (centres undefined),-12,-3,i,.,0,88,-3,-1,eIF4H inh retest=11;PABP polyA inh retest=-3
CCCCNS(=O)(=O)c1cccc(S(=O)(=O)N2CCCC2)c1,-6,-13,i,.,-1,-2,-2,4,
Cc1ccccc1CC(=O)N1CCN(S(=O)(=O)c2cccs2)CC1,2,-1,i,1,-7,-21,-5,6,
CCc1nnc2c(NCCc3ccc(OC)c(OC)c3)nc3ccccc3n12,-9,.,i,11,-4,-9,13,0,
O=[N+]([O-])c1ccc(COc2ccc(CN3CCCCC3)cc2)cc1,-21,.,.,9,.,.,6,-7,
Cc1ccc(S(=O)(=O)N2CCC(C(=O)NCCCOC(C)C)CC2)cc1,0,0,i,.,-17,-8,1,1,
O=C(c1cccs1)N1CCN(C(=O)C(c2ccccc2)c2ccccc2)CC1,-12,2,i,-44,-1,-9,0,0,
CCOc1ccc(OCC(=O)OCc2csc(CC(=O)Nc3ccccc3C)n2)cc1,.,-13,i,-1,.,.,5,5,
COc1ccc(-c2csc(N3CCN(Cc4ccc5c(c4)OCO5)CC3)n2)cc1,6,.,i,.,-1,-1,-12,-7,
CCOC(=O)C1CCCN(C(=O)c2sc3nc(-c4ccc(OC)cc4)cn3c2C)C1 (centres undefined),-6,21,i,-35,13,-2,3,2,
O=C(NC1CCCCC1)C(c1ccccc1)N(Cc1ccco1)C(=O)Cn1cnc2ccccc21 (centres undefined),-17,.,i,.,3,0,2,-1,
CCc1nc2ccc(C(=O)Nc3ccc4c(c3)OCC(=O)N4)cn2c1N(CC)Cc1cccc(Br)c1,6,.,.,33,.,.,-8,-11,
O=C(NC(Cc1ccccc1)C(=O)O)/C(=C/c1ccco1)NC(=O)c1cccc([N+](=O)[O-])c1 (centres undefined),-4,26,i,12,-12,8,-1,8,

# Other entries
SMILES,UUG fidelity,CSC inhib,Rce1 inhib,Env fusion inh,PABP polyA inh,eIF4H inh,MT1-MMP act inh,MT1-MMP act inh RFP,others
NC(=O)C1CCN(c2nc(-c3ccc(F)cc3)cs2)CC1,3,1,.,-18,.,.,1,-1,
CCOC(=O)CSc1nnc(-c2ccc([N+](=O)[O-])cc2)o1,.,1,i,-10,-12,2,-3,-1,
Cc1nc2cc(C(F)(F)F)ccc2n1CCNc1nc(-c2ccc(F)cc2)cs1,-18,-8,i,35,-1,-4,0,1,
CC(C)C(c1nnnn1C1CCCC1)N1CCN(c2ccccc2F)CC1 (centres undefined),-19,0,i,.,-1,-6,-9,-5,
CC(=O)Oc1ccc(-c2ccc(C(=O)Nc3cccc(S(=O)(=O)N4CCOCC4)c3)cc2)cc1,.,93*,i,10,-5,-4,8,-10,
CCC(=O)NC(Nc1cc(C)cc(C)n1)(C(F)(F)F)C(F)(F)F,-13,-18,i,1,-1,2,-3,-4,
Cc1nn2cc(-c3ccc(N)cc3)nc2s1,-34,-2,i,.,-6,-7,8,-1,
O=C(Nc1sc(-c2ccccc2)cc1C(=O)O)c1ccccc1,-17,26,i,-34,6,2,1,-2,
CCO[C@@H]1OC(C(N)=O)=C[C@H](C2CC2)[C@H]1CCCO,-10,11,i,-17,.,.,0,2,
COc1ccccc1N1CCN(C(=O)c2ccc3[nH]c4c(c3c2)CCCC4)CC1,-5,18,i,0,-6,-12,-1,-6,
COC(=O)C(Cc1ccccc1)NC(=O)c1cccc(S(=O)(=O)N(C)C)c1 (centres undefined),9,16,i,4,2,2,0,4,
Cc1ccc(S(=O)(=O)N2CCOCC2)cc1C(=O)NC(C)CCc1ccccc1 (centres undefined),-7,-1,.,9,.,.,-2,-4,
CCC(CC)c1nnc(NC(=O)c2cccc(S(=O)(=O)N3CCOCC3)c2)s1,-5,38,.,6,.,.,-2,-13,
CCCNC(=O)OC[C@H]1O[C@H](CCO/N=C/C[C@@H]2C=C[C@H](OC(C)=O)[C@@H](COC(C)=O)O2)C=C[C@@H]1Oc1ccc(OC)cc1,.,-1,i,.,-2,2,.,.,
